TRPML1 blocker: human mucolipin-1 channel inhibition; Q9GZU1; TRPML1-inducible cells, Ca2+ dye fluorescence, FDSS; active compounds read low; inhibition of EC80 agonist-evoked calcium signal; activity change, negative = inhibition, % (no concentration beside the values); 0.02% of 390,000 active; AID 624415; in the data active means activity change below about -50%; inconclusive means about -30% to -50%; inactive means above about -30%;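 further: stimulus is agonist 54-4 at its EC80 concentration; on the % scale 0 is the no-effect control and ±100 the full control effect; compound concentration not given in the record; the text of the record puts the active cut at -80%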
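Calcium fluorescence in TRPML1-DL cells induced overnight with Tet: a 110 s read after compound pin addition, then a 110 s antagonist read after challenge with 54-4 at 4 uM final (EC80).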
Sfp inh: blocks B. subtilis Sfp PPTase activity; Q9F4F7; Biochemical Sfp PPTase activity, qHTS; Potency, µM, inactives show max response, negative = inhibition, most hits filed as inhibitors; 3.5% of 310,000 active; active means well fitted inhibition curve with a large enough effect; inconclusive means small, poorly fitted or top-dose-only effect, or another doubt; inactive means no such curve, though single readings can be large or run the other way;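 further: the enzyme is Sfp with the accession as filed and its product quenches rhodamine fluorescence; potency means the concentration at half of the fitted maximal effect; 0% = enzyme reaction without inhibitor and -100% = no enzyme wells; top concentration of the series not given in the record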
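After 15 min at room temperature with compound, 15 nM Sfp received 5 uM rhodamine-CoA plus 12.5 uM BHQ-2-ybbR (50 mM Hepes pH 7.6, 10 mM MgCl2). Rate came from the fluorescence difference over 30 min, ex 525/em 598 nm.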
gsp ag: gsp mutant agonism | gsp mutant cells, cAMP HTRF, 30 min; control for the full effect not named in the record | Potency, µM (series often up to 76.9 µM), for the others: at the highest dose activation (cAMP increase), usual class: activators | 0.13% of 340,000 active | AID 624287; active = well fitted activation curve with a large enough effect; inconclusive = small, poorly fitted or top-dose-only effect, or another doubt; inactive = no such curve, though single readings can be large or run the other way; cell line not stated here;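 further: phosphodiesterase inhibitor Ro 20-1724 added with compounds to block cAMP breakdown; potency means the concentration at half of the fitted maximal effect; nearly all actives have a fitted effect of over 60% in size; about a fifth of the inactives were tested at one dose only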
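Cells stably selected in G418 were plated at 2000/well, grown 16-24 hr, then given compounds in DMSO with the PDE inhibitor […] (300 uM solution added) for 30 min at 37C; cAMP was read by HTRF.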
gsp antagonist: antagonizes gsp, the McCune-Albright syndrome mutation; 0.4% of 340,000 active; Potency, µM (highest dose often 76.9 µM), for inactives: top-dose activity change, negative = inhibition, actives largely listed as inhibitors; gsp-mutant cells, cAMP HTRF, 30 min; control for the full effect not named in the record; active = falling curve of any shape with a large fitted effect; inconclusive = falling curve, mostly with a smaller effect; inactive = flat or rising curve; cell line not stated here;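 further: intracellular cAMP measured with PDE inhibitor Ro 20-1724 present during compound exposure; potency means the concentration at half of the fitted maximal effect; on the % scale 0 is the no-effect control and ±100 the full control effect; nearly all actives have a fitted effect of over 65% in size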
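G418-selected cells were plated in DMEM/10% FBS for 16-24 h at 37C, then treated with compounds plus the PDE inhibitor […] (300 uM solution added) for 30 min at 37C. Intracellular cAMP was measured by HTRF after 30 min lysis at room temperature.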
TRPV1 PAM: potentiators of human vanilloid receptor 1 (TRPV1) | Q8NER1 | potentiation, % at 8.33 µM | 0.02% of 320,000 active | TRPV1-expressing cells, Fluo-8 calcium influx, capsaicin EC20 potentiation; host cell line not named in the record; control for the full effect not named in the record; active means potentiation above 80%; inconclusive means 30% to 80%; inactive means below 30%; further: 0% is about no effect
Target sequence (Q8NER1 whole entry, looked up): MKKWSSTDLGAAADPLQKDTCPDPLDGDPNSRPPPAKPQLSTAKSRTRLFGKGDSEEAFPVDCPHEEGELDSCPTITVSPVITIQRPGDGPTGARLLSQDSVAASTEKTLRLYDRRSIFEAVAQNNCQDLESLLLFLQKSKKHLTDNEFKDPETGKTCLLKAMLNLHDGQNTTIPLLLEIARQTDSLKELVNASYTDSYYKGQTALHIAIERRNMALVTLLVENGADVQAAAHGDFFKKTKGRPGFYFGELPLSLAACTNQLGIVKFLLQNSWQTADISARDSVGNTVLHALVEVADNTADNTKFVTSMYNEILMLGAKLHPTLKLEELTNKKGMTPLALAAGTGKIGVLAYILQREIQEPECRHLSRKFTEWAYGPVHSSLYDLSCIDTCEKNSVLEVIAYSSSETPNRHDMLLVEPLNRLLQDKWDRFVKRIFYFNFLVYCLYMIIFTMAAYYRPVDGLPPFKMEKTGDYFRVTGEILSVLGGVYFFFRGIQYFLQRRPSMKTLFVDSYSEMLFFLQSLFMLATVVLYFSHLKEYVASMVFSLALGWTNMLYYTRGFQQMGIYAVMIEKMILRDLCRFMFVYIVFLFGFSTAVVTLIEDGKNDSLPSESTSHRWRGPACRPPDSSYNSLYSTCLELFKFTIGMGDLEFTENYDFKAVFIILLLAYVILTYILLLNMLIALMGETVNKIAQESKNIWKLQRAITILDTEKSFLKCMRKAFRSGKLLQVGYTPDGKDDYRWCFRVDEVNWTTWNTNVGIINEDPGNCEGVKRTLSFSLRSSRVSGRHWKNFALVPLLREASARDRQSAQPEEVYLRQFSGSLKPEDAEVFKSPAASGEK
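TRPV1-expressing cells were cultured overnight at 35.5C and loaded with Fluo-8 calcium dye for 40 to 90 min at room temperature. After a 10 s baseline, compound was added and calcium influx was read kinetically for 3 min (ex 480/em 520 nm).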
Menin MLL FP FL: menin-MLL binding inhibition, fluorescein peptide. AID 1766. 290,000 tested, under 10 active. FP activity change, % at 61.4 µM. Fluorescence polarization, fluorescein-MLL peptide displacement from menin; inconclusive = falling polarisation curve, or a change in total fluorescence; inactive = total fluorescence flat and polarisation flat or rising; no compound was filed as active; the % refers to the polarisation; negative = inhibition;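 further: % of control where 0% means no effect; inhibitors lower the polarisation; unlabelled MLL peptide was the positive control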
ClpP mod: qHTS Assay for Activators of ClpP | ATP-dependent Clp protease proteolytic subunit (Bacillus subtilis (strain 168)), P80244 | purified B. subtilis ClpP, FRET peptide cleavage, 20 min | Potency, µM (series often up to 57.5 µM), without a hit: at the highest dose activity change, negative = active | 1.9% of 340,000 active; active = well fitted falling curve with a large enough effect; inconclusive = small, poorly fitted or top-dose-only effect; inactive = no such curve, though single readings can be large or run the other way; further: potency means the concentration at half of the fitted maximal effect; the source files actives as falling curves though it sought activators and does not explain the sign; nearly all actives have a fitted effect of over 65% in size; many hits overshoot -100%
Target sequence (P80244 whole entry, looked up): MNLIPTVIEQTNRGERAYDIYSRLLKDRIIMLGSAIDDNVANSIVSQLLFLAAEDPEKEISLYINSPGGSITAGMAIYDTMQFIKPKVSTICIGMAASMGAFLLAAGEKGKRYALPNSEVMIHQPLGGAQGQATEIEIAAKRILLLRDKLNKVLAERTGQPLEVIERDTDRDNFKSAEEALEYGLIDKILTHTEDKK
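Buffer: 100 mM Tris/HCl pH8, 100 mM KCl, 0.05% low protease BSA, 2.5% glycerol, 0.01% Tween-20. ClpP 10 microg/mL final; 20 min RT; delta FRET normalized to ADEP and DMSO controls.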
Starred values were filed as active, the others as inactive; ? = inconclusive; nt = not tested or not shown; & = joins results of further samples; [ ] = dose if it differs, or a comment.

SMILES	TRPML1 blocker	Sfp inh	gsp ag	gsp antagonist	TRPV1 PAM	Menin MLL FP FL	ClpP mod
CCN(CC)S(=O)(=O)c1cc(NC(=O)CCNC(=O)c2ccccc2Cl)ccc1C	-4	12%	-16%	5%	?	1.9	-1.1%
Cc1nn(S(=O)(=O)c2ccc(F)cc2)c(C)c1S(=O)(=O)N1CCCCC1	-10&-3	10%	-13%	-2%	4	nt	0.3%&0.0%
O=C(Cn1c(C(F)(F)F)nc2ccccc21)NCCCN1CCOCC1	15	10%	-19%	6%	7	0.4	-0.2%
Nc1ccc(OCc2ccccc2)cc1[N+](=O)[O-]	27	nt	1%	-10%	nt	nt	nt
CCOC(=O)c1c(C)[nH]c(C(=O)OCC(=O)c2c(N)n(C)c(=O)n(C)c2=O)c1C	nt	3%	nt	nt	-1	-2.0	nt
CCN=c1scc(-c2ccccc2)n1/N=C/c1ccccn1	63	-22%	13%[15.4 µM]	-11%	-8	3.4	nt
O=C(Nc1ccc(Br)cn1)c1coc(=O)c(Br)c1	23	3%	-1%[15.4 µM]	-2%	?	?	nt
CN(Cc1c(F)cccc1Cl)C(=O)CNC(=O)c1ccc2c(c1)OCO2	24	nt	15%[15.4 µM]	-7%	-18	nt	-7.4%
COCCN(C(=S)Nc1ccccc1C)C(C)c1ccco1 (stereo not given)	-13	-3%	-30%	-19%	16	-1.4	-0.4%
CCN1CCN(CC(=O)N2N=C(c3ccc(OC)cc3)CC2c2ccc(OC)cc2)C(=O)C1=O (stereo not given)	-28	16%	4%[15.4 µM]	-19%	-9	0.2	nt
c1ccc(CN2CCN(CCOCCOc3ccc4c(c3)CCC4)CC2)cc1	-8	8%	-2%[15.4 µM]	13%	6	-0.4	-0.1%
CCOC(=O)C(C)Oc1cccc2c(=O)n(CC(=O)NCCc3ccc(OC)c(OC)c3)ccc12 (stereo not given)	1	11%	-3%	-5%	4	0.2	-7.4%
COc1cc(CCC(=O)OCC(=O)NC2CCCC(C)C2C)cc(OC)c1OC (stereo not given)	-5	15%	5%[15.4 µM]	9%	-2	4.5	-0.3%
COc1ccc(C2CC(=O)C(CS(=O)(=O)c3ccccc3)C(=O)C2)cc1 (stereo not given)	-2	-12%	-7%[15.4 µM]	0%	4	7.9	nt
CC(OC(=O)CNC(=O)COc1ccccc1)C(=O)N(C)Cc1ccccc1 (stereo not given)	3	nt	2%[15.4 µM]	8%	-9	nt	0.9%
COc1ccc(C(=O)Nc2ccc(Cl)cc2C(=O)N2CCOCC2)cc1	12	12%	13%	5%	8	nt	-2.3%
Cn1c(Cc2nc3ccccc3n2C)nc2ccccc21	5	nt	-33%[inhibitor]	9%	-13	nt	-1.7%
O=C1CC(N2CCCCCC2)C(=O)N1c1ccc2c(c1)OCO2 (stereo not given)	15	-28%	-54%[inhibitor]	-1%	11	5.2	1.1%
NS(=O)(=O)c1ccc(NC(=O)CSc2nc3ccccc3n2-c2ccccc2)cc1	-1	10%	-3%	-21%	-17	0.7	-3.7%
Cc1ccc(C)c(NC(=O)c2ccc[n+](Cc3ccc([N+](=O)[O-])cc3)c2)c1	-16	20%	-64%[inhibitor]	5%	4	8.5	-4.2%
N/C(Cc1ccc(Cl)cc1Cl)=N\OC(=O)Cc1cccs1	-18	-8%	13%[15.4 µM]	-9%	4	2.2	0.0%
O=C(NCCCO)C(=O)Nc1ccc2c(c1)N(S(=O)(=O)c1cccs1)CCC2	3	nt	20%	11%	-24	nt	1.1%
CCN(CC(=O)N1CCN(Cc2ccccc2)CC1)S(=O)(=O)c1ccc(C)cc1	15	3%	?	3%	-13	-1.8	2.3%
CC(C)[C@@H](C(=O)NCC1CCCO1)N1C(=O)N2CCc3c([nH]c4ccccc34)[C@@]2(C)C1=O (stereo not given in full)	nt	24%	nt	-5%	-13	-0.2	-0.8%
COc1ccc(OC)c(N(CCN2C(=O)c3ccccc3C2=O)C(=O)C2CCC(=O)C2C)c1 (stereo not given)	8	nt	-37%[inhibitor]	nt	nt	nt	0.0%
Brc1ccccc1-n1nnc(-c2cccnc2)n1	-4	5%	-1%	-3%	-3	6.4	0.2%
COc1cccc(CN(C)S(=O)(=O)c2ccc3c(c2)OCCO3)c1	31	nt	-43%[inhibitor]	-34%	-17	nt	-1.0%
O=C(CSCc1ccccc1Br)NC1CC1	8	9%	3%	9%	-9	3.4	1.2%
Cc1ccc(N2C(=O)[C@@H]3C(C(=O)CN4C(=O)c5ccccc5C4=O)=NN[C@@H]3C2=O)c(C)c1	-8	-4%	-8%[15.4 µM]	9%	6	4.3	1.6%
CCc1cc2c3c([nH]c2cc1S(=O)(=O)N1CCC2(CC1)OCCO2)CCCC3=O	-17	1%	-51%[inhibitor]	2%	-12	1.3	-1.7%
CCOc1cc(C(=O)N2CCCC2)cc(OCC)c1OCC	-24	13%	-4%	-9%	-8	3.9	-2.5%
CC(NCc1ccc2c(c1)OCO2)C(=O)N1CCc2ccccc21 (stereo not given)	18	9%	-20%	1%	-4	5.8	-4.7%
O=C(Nc1ccc(N2CCCC2)c(S(=O)(=O)Nc2cccc(C(F)(F)F)c2)c1)c1cccs1	34	7%	-39%[inhibitor]	-30%	-9	10	-3.3%
CC(C)c1nc(Cl)c(C#N)c2c1CSC(C)(C)C2	-6	-3%	7%[15.4 µM]	13%	-9	1.9	nt
CCCCCCCCCC[n+]1cccc(C(=O)N(CC)CC)c1	-12	5%	6%	-10%	-4	1.0	-2.9%
CCc1nc2oc3ccccc3c(=O)c2c(=O)n1Cc1ccccc1	-10	6%	-17%	-1%	-11	3.2	-6.1%
O=C1CCN(Cc2ccccc2)CCN1[C@H](CO)c1ccccc1	-21	4%	25%	7%	?	-2.7	-2.1%&0.2%&3.4%
CCOC(=O)CNC(=O)N1CCCC(C(=O)c2cc(C)c(OC)c(C)c2)C1 (stereo not given)	50	27%	-22%	-12%	18	-0.9	nt
CC(=O)Nc1cccc(/C(C)=N/N2C(C)CCCC2C)c1 (stereo not given)	-25	13%	9%	1%	-10	1.4	-2.4%
Cc1nnsc1C(=O)NNC(=O)c1ccc(C(F)(F)F)cc1	9	-7%	-6%[15.4 µM]	?	?	1.1	nt
CCC1C(=O)C(C)(C)C(=O)OC1c1ccc([N+](=O)[O-])cc1 (stereo not given)	-10	-29%	?	0%	-2	-0.1	nt
CSc1cccc(CN2CCCC(CNC(=O)c3ccco3)C2)c1 (stereo not given)	1	21%	-6%[15.4 µM]	13%	6	4.0	-14%
COc1cc2c(c(OC)c1OC)-c1ccc(OC)c(=O)cc1C(NC(=O)c1ccccc1)CC2 (stereo not given)	0	nt	-42%[inhibitor]	2%	nt	nt	1.2%
CC(C)(C)NC(=O)CN(C(=O)CCN1CCCc2ccccc21)C(C)(C)C	23	16%	13%	-4%	-7	-0.3	-3.5%
O=C1C(=O)N(CCN2CCOCC2)C(c2ccc(Cl)cc2)/C1=C(/O)c1ccc(S(=O)(=O)N2CCOCC2)cc1 (stereo not given)	-5	-9%	6%[15.4 µM]	-8%	?	0.6	nt
CCc1noc(C)c1C(=O)Nc1ccccc1C(C)(C)C	-29	-6%	1%	5%	-6	0.0	-0.3%
N#CCc1c(C#N)c(N)nc(N2CCOCC2)c1C#N	7	nt	-12%	4%	nt	nt	-15%
CC1CCCCC1NC(=O)CC1Oc2ccccc2NC1=O (stereo not given)	9	-4%	6%	-1%	-4	3.8	1.3%
O=C(NCc1ccccc1C(F)(F)F)c1cccc2c1C(=O)c1ccc(N3CCC(N4CCCCC4)CC3)cc1S2(=O)=O	-5	nt	-53%[inhibitor]	nt	nt	nt	-0.6%
CCOCC(=O)Nc1nnc(SCCOC)s1	-13	7%	-32%[inhibitor]	4%	10	4.6	-2.0%
COc1ccc(C(=O)O/N=C(/c2ccccc2)c2ccncc2)cc1	-1	0%	-1%	0%	3	3.2	-1.9%
Cc1ccc(CNC(=O)C2CCC(=O)N(CCc3cccc(F)c3)C2)s1 (stereo not given)	3	10%	6%[15.4 µM]	0%	-25	2.1	-2.4%
CCc1ccc2oc(-c3cc(N)ccc3Cl)nc2c1	9	4%	26%	-8%	-9	0.7	?
CC(C)N(C(=O)Cn1c(SCC(=O)NC2CC2)nc2ccccc21)C(C)C	5	14%	7%	0%	-8	nt	nt
COc1ccc(CN2CCOCCOCCOCC2)cc1	9	-3%	2%[15.4 µM]	11%	3	-0.7	4.6%
COC(=O)NNC(=S)NCc1ccc(C)cc1	-11	18%	11%	9%	2	3.0	0.0%
Nc1nccnc1C(=O)OCC(=O)C12CC3CC(CC(C3)C1)C2	14	nt	-17%[15.4 µM]	-1%	6	nt	nt
CCOC(=O)/C(C#N)=C/c1cccc(F)c1	-15	26%	-3%[15.4 µM]	nt	-1	-0.8	nt
CSc1nc2ccsc2c(=O)n1-c1cccnc1	19	23%	-8%	4%	6	-6.5	nt
CCCC(=O)N1CCN(c2ccc(NC(=S)NC(=O)CC)cc2)CC1	3	2%	14%	?	2	0.1	-2.2%
The list goes on:
SMILES	TRPML1 blocker	Sfp inh	gsp ag	gsp antagonist	TRPV1 PAM	Menin MLL FP FL	ClpP mod
CN(C(=O)c1ccccc1)C1(C)CCS(=O)(=O)C1 (stereo not given)	14	19%	8%	1%	13	-1.6	-17%
Cc1ccc(CNS(=O)(=O)c2cc3c(cc2C)NC(=O)CO3)cc1	-9&18	24%	14%	18%	-7	-0.1	-0.9%&-0.1%
CCc1ccc(S(=O)(=O)Nc2ccc(C)c(NS(C)(=O)=O)c2)cc1	3	6%	-26%	-5%	13	1.0	0.3%
CCOC(=O)CSc1nnc(-c2cccs2)n1-c1ccccc1	4	-19%	13%	-20%	-13	3.2	-5.4%
O=C(CCN1C(=O)C2C3C=CC(C3)C2C1=O)N1CCN(c2ccc([N+](=O)[O-])cc2)CC1 (stereo not given)	9	0%	27%	-21%	6	0.6	0.5%
Cc1cccc(-n2ncc3c2CCCC3NC(=O)c2ccncc2)c1C (stereo not given)	-25	nt	-111%[inhibitor]	nt	nt	nt	-3.7%
CCc1nc(SCC(=O)Nc2ccccc2OC)n[nH]1	12	22%	-2%[15.4 µM]	-4%	8	-0.7	nt
Cc1cccc(C(=O)N/N=C/c2ccc[nH]2)c1	-5	9%	-7%	0%	-1	8.6	-12%
N#Cc1nc(-c2ccccc2F)oc1N1CCN(C(=O)c2ccco2)CC1	15	1%	-36%[inhibitor]	-18%	0	-3.2	31%

Screens as filed in PubChem BioAssay.
